# Mtb hypoxia inh: reduces hypoxia-regulated biosensor signal in M. tuberculosis; fluorescence inhibition, % (concentration not given with the values); AID 1159583; M. tuberculosis hypoxia-regulated fluorescent reporter, fluorescence; 300,000 compounds, 0.1% hits;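 active means 35 to 45% if threefold the growth effect, above 45% if 1.5-fold the growth effect; inactive means the rest, general growth blockers included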;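 further: wells of about 50 µL received 100 nL stock; 0% = vehicle wells and 100% = reference inhibitor wells; whole bacteria with a GFP reporter of the hypoxia response; strong numbers were not always called active; many hits fall short of the cut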
# Sa ugtP lethal: kills S. aureus RN4220 lacking UgtP; S. aureus RN4220 ugtP deletion, OD600 growth, 16 h; some inactives read as strong as hits; growth inhibition, % (concentration not given with the values); 330,000 compounds, 0.54% hits; AID 1259309;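 active means z-score under -3 and OD600 up to 0.15 on both plates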;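 further: plate controls were untreated wells for no effect and antibiotic for full effect; wells of about 80 µL received 100 nL stock; the first replicate is given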
# RN4220 kill: S. aureus RN4220 growth inhibition; inhibition, % (test concentration not listed); OD600, 16 h; 330,000 compounds, 0.33% hits;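 active means z-score of -3 or lower and OD600 up to 0.18 on both plates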;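 further: plate controls were untreated cells for no effect and reference antibiotic for full effect; stock transfer was 100 nL into about 80 µL; one replicate is shown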
# PrP UTR inh: inhibition of PrP 5' UTR reporter expression; 340,000 compounds, 0.35% hits; AID 488862; inhibition, % (test concentration not listed); cell-based PrP 5' UTR mRNA reporter, plate reader;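 active means every replicate at 50% or more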;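 further: 0 = median of the neutral control wells; tested in H4 reporter cells; numbers are from one replicate; inactives centre near -14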
# BJeLR viability: kills HRASV12-expressing BJeLR cells; BJeLR (HRASV12) viability, CellTiter-Glo ATP luminescence, 48 h; reference of the scale not given here; inhibition, % (no concentration beside the values); 300,000 compounds, 0.17% hits;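 active means replicate mean above 50%; inconclusive means above 50% but judged a plate artefact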;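 further: 50 nL library stock added to about 25 µL; numbers are from one replicate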
# Autofluor counter: counter-screen for toxin protease inhibitors: compound fluorescence; compound autofluorescence counterscreen, microsphere flow cytometry; active compounds read high; fluorescence intensity (test concentration not listed); 360,000 compounds, 3.1% hits;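 active means at least 3 SD above the mean of all compounds, about 16000 in these data; inconclusive means too few beads counted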;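 further: 100 nL of 1 mM stock went into each well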
# Mtb hypoxia inh growth: further read-out of Mtb hypoxia inh, marked with its call; growth inhibition, %; measured here: M. tuberculosis growth (absorbance);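 0% = vehicle and 100% = reference antibiotic; read after six days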
# An asterisk follows results filed as active; ? = inconclusive; . = no result given.
SMILES,Mtb hypoxia inh,Mtb hypoxia inh growth,Sa ugtP lethal,RN4220 kill,PrP UTR inh,BJeLR viability,Autofluor counter
O=C(NC(=S)Nc1ccccc1N1CCCCC1)c1ccc(F)cc1,13,3,59,0.2,-9,4,6714
Cc1cc(NC(=O)c2ccc3c(c2)OCO3)ccc1NC(=O)c1ccccc1,-1,1,10,0.7,-15,9,5229
COc1ccc2cc(C3(C)NC(=O)N(CC(=O)Nc4c(C)n(C)n(-c5ccccc5)c4=O)C3=O)ccc2c1 (configuration not stated),6,10,1,1.3,-32,6,10698
CCc1cccc2c(C(=O)CSc3nncn3-c3ccccc3OC)c[nH]c12,-2,1,-10,1.7,-5,3,8271
CN(CCCNC(=O)c1cccc(N2CCCC2=O)c1)c1ccccc1,10,4,5,3.8,-11,9,2837
CCCCNC(=S)N/N=C1\CCCCc2ccccc21,.,.,.,.,-22,0,2067
O=C(COc1cccnc1[N+](=O)[O-])NC1CCS(=O)(=O)C1 (configuration not stated),0,13,5,3.7,-14,-19,2352
Cc1c(C(=O)N2CCCCC2)sc(NC(=O)C23CC4CC(CC(C4)C2)C3)c1C#N,1,3,5,4.6,-12,-9,2978
CC(=O)N/N=C/c1cc(C)n(-c2ccc(Br)cc2)c1C,.,.,.,.,-8,-8,2551
Cc1cc(C)c(NC(=O)C2=COCCO2)c(C)c1,4,5,6,0.3,-35,-1,5733
O=C(NCCS(=O)(=O)N1CCN(c2ccc(F)cc2)CC1)C12CC3CC(CC(C3)C1)C2,8,6,-3,2.1,-13,17,5718
Cc1ccc(C(C)C)c(OCc2ccc(C(=O)NN=Cc3cccc(O)c3O)cc2)c1,5,0,51,32,.,.,.
COc1ccc(C2CC(c3cccs3)=NN2C(=O)COC(=O)c2cc3ccccc3cc2O)cc1OC (configuration not stated),2,4,5,1.9,-3,0,7526
O=C(NCC(=O)N1CCCCC1)c1sc2ccccc2c1Cl,3,1,0,4.7,-64,.,8111
Cc1ccccc1-c1noc(CCC(=O)NC2CCCCC2)n1,6,-2,15,-2.8,-29,3,3474
CCN1CCN(C(=O)/C(C#N)=C/c2ccc(OC(F)F)cc2)CC1,8,-1,7,2.1,-14,7,3203
Cc1csc(NC(=O)CCNS(=O)(=O)c2ccc3c(c2)c(=O)n(C)c(=O)n3C)n1,8,11,3,6.1,-12,-12,11247
CCOC(=O)c1sc(C)c2c1NC(c1ccc(Cl)cc1)NC2=O (configuration not stated),.,.,0,3.2,-37,-6,4103
COC(=O)CCCC1=CC2=C(c3ccccc3)C(=O)C(C)(OC(=O)C3CCCC3)C(=O)C2=CN1C(CO)CO (configuration not stated),8,5,3,6.9,-11,-4,3003
O=C(CCl)c1ccc2[nH]c(=O)oc2c1,.,.,.,.,-6,-3,3451
CC1(C)C[C@H]2C3=CCC4[C@@]5(C)CC[C@H](O)[C@](C)(CO)C5CC[C@@]4(C)[C@]3(C)CC[C@@]2(C)[C@H](O)[C@@H]1O (some centres not stated),.,.,-3,1.3,-11,.,5768
Cc1ccccc1OCc1n[nH]c(=S)n1-c1cccc(Cl)c1,4,6,-2,5.7,-43,-2,3971
Cc1cc(NC(=O)C(C)SCC(=O)Nc2ccccc2N2CCCCC2)no1 (configuration not stated),3,2,-2,7.3,-17,-2,4985
Cc1ccc(OCC(=O)Nc2ccc3oc(=O)ccc3c2)c(C)c1,10,4,9,0.2,-28,6,4045
COc1ccc(OC)c(C2=NOC(C(=O)Nc3ccccc3SC)C2)c1 (configuration not stated),-8,1,1,2.6,-11,1,4527

# Other results:
SMILES,Mtb hypoxia inh,Mtb hypoxia inh growth,Sa ugtP lethal,RN4220 kill,PrP UTR inh,BJeLR viability,Autofluor counter
COc1ccc(CNc2nc(NCc3ccc(OC)cc3)n(C(=O)c3ccccc3[N+](=O)[O-])n2)cc1,-2,-9,-5,-3.8,-34,-3,11481
CCN(c1ccccc1)S(=O)(=O)c1ccc2[nH]c(=O)[nH]c2c1,-8,3,-8,4.6,-9,-6,4412
Cc1ccc(NCc2nnc(SCC(=O)N3CCc4ccccc43)n2C)cc1,13,9,6,5.6,-34,12,11281
Cc1ccsc1C(=O)N/N=C/c1ccc([N+](=O)[O-])cc1,.,.,.,.,-141,-6,2482
Cc1cccc(NS(=O)(=O)c2c(C)n[nH]c2C)c1,4,6,10,7.9,-23,-20,8851
Cc1ccc(C)c(S(=O)(=O)N2CCCOC2CNC(=O)C(=O)NCCCn2ccnc2)c1 (configuration not stated),11,0,2,5.6,-15,8,2026
CC(=O)Nc1ccc(S(=O)(=O)N(C)CC(=O)NCCC2=CCCCC2)cc1,0,1,5,2.9,0,3,5584
Cc1ccc2c(c1)cc1c(=O)[nH]ncn12,.,.,.,.,-44,12,3715
CCOc1ccc(NC2=NC(C(=O)NCc3ccccc3)CC(=O)N2)cc1 (configuration not stated),-2,-3,-2,1.6,-3,-3,3272
CC(C)C(OC(=O)c1cccs1)C(=O)NCc1ccc2c(c1)OCO2 (configuration not stated),-3,7,5,1.3,-22,9,4587
CCOC(=O)c1c(NC(=O)COC(=O)CCOc2cc(C)ccc2C)sc(C(=O)N(C)C)c1C,17,9,-4,4.7,-9,.,4213
COc1ccccc1NS(=O)(=O)c1cc(C(=O)NCc2ccncc2)ccc1C,0,5,14,8.0,-9,2,5744
Cc1scc(C(=O)N/N=C/c2ccco2)c1C,.,.,.,.,-72,-3,3760
CC1=Nc2ccccc2/C1=C/c1sc(=S)n(-c2cccc(C(=O)O)c2)c1O,-10,5,10,14,-39,-16,3102
CC(C)(C)NS(=O)(=O)c1ccc2nc(NC(=O)c3ccc(N4C(=O)CCC4=O)cc3)sc2c1,-19,1,-6,4.0,-20,14,8580
CN(C)C(=O)N(CCCN1CCOCC1)Cc1cccc2ccccc12,-2,14,-3,0.6,.,0,4228
CCOCC(=O)Nc1ccccc1C(=O)O,12,3,3,7.5,0,2,4950
CCOC(=O)c1c(C)oc2c1c(C(c1ccccc1)N1CCOCC1)c(O)c1ccccc12 (configuration not stated),8,7,89*,14,-112,-6,19404*
Cc1cc(C(=O)Nc2c(C)nn(Cc3ccc(Cl)cc3)c2C)no1,1,-2,4,1.1,-28,-5,.
C=CCn1c(-c2ccc(S(=O)(=O)N3CCOCC3)cc2)csc1=Nc1ccccc1,9,16,-3,8.2,-10,8,.
COCCNC(C)C(=O)C12CC3CC(CC(C3)C1)C2 (configuration not stated),3,-2,5,1.4,-7,1,8352
CCc1ccccc1NC1Nc2cc(C)nn2S1 (configuration not stated),17,23,5,0.3,-40,0,3877
CCN(CC(=O)Nc1ccc2c(c1)OCCO2)S(=O)(=O)c1ccccc1,1,-4,4,1.9,-26,-2,6430
O=C(CN1CCN(C(=O)c2cncn2-c2ccccc2)CC1)Nc1ccccc1Cl,-3,6,-3,4.0,9,.,5495
Cc1ccc(C(=O)NCC(c2ccco2)N2CCc3ccccc32)cc1C (configuration not stated),5,8,3,-6.3,3,8,?

# Other entries follow.
SMILES,Mtb hypoxia inh,Mtb hypoxia inh growth,Sa ugtP lethal,RN4220 kill,PrP UTR inh,BJeLR viability,Autofluor counter
S=C(NC1CCCCC1)N1CCc2ccccc2C1,16,14,-11,4.0,-38,1,8488
O=C(O)c1ccc(S(=O)(=O)c2ccc3c(c2)C(=O)N(CC2CCCO2)C3=O)cc1 (configuration not stated),18,16,-2,-14,-10,4,2748
Cc1ccc(N2CCN(c3ncccc3[N+](=O)[O-])CC2)c(C)c1,19,10,-1,-1.3,-14,1,3956
COc1ccc(Cn2c(N)c(C#N)c3nc4ccccc4nc32)cc1,.,.,.,.,-21,-14,6064
Cn1c2c(c3ccccc31)CCN1CCC[C@]21c1ccccc1,0,1,-15,-0.7,-1,6,4827
Cc1ccc(NC(CSC(N)=O)=NS(=O)(=O)c2ccccc2)cc1,4,4,-3,3.8,.,.,.

# A draw from above in order of count of non-hydrogen atoms, high to low.
SMILES,Mtb hypoxia inh,Mtb hypoxia inh growth,Sa ugtP lethal,RN4220 kill,PrP UTR inh,BJeLR viability,Autofluor counter
Cc1ccc(NC(CSC(N)=O)=NS(=O)(=O)c2ccccc2)cc1,4,4,-3,3.8,.,.,.
Cn1c2c(c3ccccc31)CCN1CCC[C@]21c1ccccc1,0,1,-15,-0.7,-1,6,4827
S=C(NC1CCCCC1)N1CCc2ccccc2C1,16,14,-11,4.0,-38,1,8488

# Grouped by structure: those above with four or more nitrogen atoms.
SMILES,Mtb hypoxia inh,Mtb hypoxia inh growth,Sa ugtP lethal,RN4220 kill,PrP UTR inh,BJeLR viability,Autofluor counter
COc1ccc2cc(C3(C)NC(=O)N(CC(=O)Nc4c(C)n(C)n(-c5ccccc5)c4=O)C3=O)ccc2c1 (configuration not stated),6,10,1,1.3,-32,6,10698
CCc1cccc2c(C(=O)CSc3nncn3-c3ccccc3OC)c[nH]c12,-2,1,-10,1.7,-5,3,8271
Cc1csc(NC(=O)CCNS(=O)(=O)c2ccc3c(c2)c(=O)n(C)c(=O)n3C)n1,8,11,3,6.1,-12,-12,11247
Cc1cc(NC(=O)C(C)SCC(=O)Nc2ccccc2N2CCCCC2)no1 (configuration not stated),3,2,-2,7.3,-17,-2,4985
COc1ccc(CNc2nc(NCc3ccc(OC)cc3)n(C(=O)c3ccccc3[N+](=O)[O-])n2)cc1,-2,-9,-5,-3.8,-34,-3,11481
Cc1ccc(NCc2nnc(SCC(=O)N3CCc4ccccc43)n2C)cc1,13,9,6,5.6,-34,12,11281
Cc1ccc(C)c(S(=O)(=O)N2CCCOC2CNC(=O)C(=O)NCCCn2ccnc2)c1 (configuration not stated),11,0,2,5.6,-15,8,2026
CCOc1ccc(NC2=NC(C(=O)NCc3ccccc3)CC(=O)N2)cc1 (configuration not stated),-2,-3,-2,1.6,-3,-3,3272
CC(C)(C)NS(=O)(=O)c1ccc2nc(NC(=O)c3ccc(N4C(=O)CCC4=O)cc3)sc2c1,-19,1,-6,4.0,-20,14,8580
Cc1cc(C(=O)Nc2c(C)nn(Cc3ccc(Cl)cc3)c2C)no1,1,-2,4,1.1,-28,-5,.
CCc1ccccc1NC1Nc2cc(C)nn2S1 (configuration not stated),17,23,5,0.3,-40,0,3877
O=C(CN1CCN(C(=O)c2cncn2-c2ccccc2)CC1)Nc1ccccc1Cl,-3,6,-3,4.0,9,.,5495
Cc1ccc(N2CCN(c3ncccc3[N+](=O)[O-])CC2)c(C)c1,19,10,-1,-1.3,-14,1,3956
COc1ccc(Cn2c(N)c(C#N)c3nc4ccccc4nc32)cc1,.,.,.,.,-21,-14,6064

# Screens (PubChem BioAssay)
